# Screens (PubChem)
# miR-21 reporter: qHTS Assay for Modulators of miRNAs and/orActivators of miR-21. HeLa miR-21 FLuc reporter, luciferase, 48 h. Potency, µM (doses to about 38.3 µM), inactives show at the highest dose reporter change, positive = more light. 340,000 tested, under 10 active. AID 2288, 2010; active = well fitted rising curve with a large enough effect; inconclusive = small, poorly fitted or top-dose-only effect; inactive = no such curve, though single readings can be large or run the other way;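 also: % of control where 0% means no effect; miR-21 action dims this reporter so a rising signal means less miR-21 action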
#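 Using DMEM plus 10% FBS, HeLa miR-21-FLuc cells are incubated with test compounds (final up to about 40uM) for 48 hours; firefly luciferase signal is then imaged following reagent-mediated lysis.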
# An asterisk follows results filed as active; ? = inconclusive.
# Start of the listing, in advance (3 entries):
miR-21 reporter,structure
?,CCOc1ccc(NC(=O)/C=C\C(=O)N(c2ccc(C(C)C)cc2)C(C(=O)NCc2ccco2)c2ccc(F)cc2)cc1 (stereo unspecified)
3%,CSc1ccc(CCNC(=O)CCc2c(C)nc3ncnn3c2C)cc1
6%,COc1ccc(N2CCN(c3oc(/C=C/c4ccc(F)cc4)nc3C#N)CC2)cc1

# This part in full, previewed entries included:
miR-21 reporter,structure
?,CCOc1ccc(NC(=O)/C=C\C(=O)N(c2ccc(C(C)C)cc2)C(C(=O)NCc2ccco2)c2ccc(F)cc2)cc1 (stereo unspecified)
3%,CSc1ccc(CCNC(=O)CCc2c(C)nc3ncnn3c2C)cc1
6%,COc1ccc(N2CCN(c3oc(/C=C/c4ccc(F)cc4)nc3C#N)CC2)cc1
0%,CC(Nc1ccc(-c2nc(-c3cccnc3)no2)cc1[N+](=O)[O-])c1ccccc1 (stereo unspecified)
17%,CSc1ccc(CCNS(=O)(=O)c2cc(-c3cc(C)no3)ccc2C)cc1
-40%,O=[N+]([O-])c1ccc(-c2nnc(S)n2-c2ccccc2)cc1
-36%,CCc1cc(C(=O)Nc2sc(C)c(CC)c2C#N)no1
-6%,CCOc1ccc(NC(=O)N(C)CCc2c(C)nn(C)c2C)cc1
-2%,Cc1c2cnn(-c3ccccc3)c(=O)c2c(C)n1C(C)C(=O)Nc1ccc(Br)cc1F (stereo unspecified)
0%,CCCCCOC(=O)CSc1nc2sc3c(c2c(=O)n1Cc1ccccc1)CC(C)(C)OC3
0%,Cc1cc(Cl)ccc1OCC(=O)Nc1c(Cl)ccc2nsnc12
-5%,CCc1cccc(C)c1NC(=O)Cn1nnc(-c2nc(-c3ccccc3F)no2)c1N
-2%,O=C(Cn1c(=O)n(-c2ccccc2)c(=O)c2c3c(sc21)CCCC3)Nc1cccc(F)c1
-6%,Cc1ccc(C(=O)NCC(c2ccco2)S(=O)(=O)c2cccs2)cc1C (stereo unspecified)
-8%,CCCn1c2ccccc2c2cnn(CC(=O)N3CCCC(C(=O)OCC)C3)c(=O)c21 (stereo unspecified)
2%,Cc1c(C(=O)NCc2ccc(OC(C)C)cc2)sc2ncnc(N(C)C3CCCCC3)c12
-11%,O=C(Nc1ccc(Br)cc1)C1CCN(S(=O)(=O)c2cccc3nsnc23)CC1
-1%,CCOc1ccc(CCNC(=O)c2cc3c(=O)n(C)c4ccccc4c3s2)cc1OCC
?,CCOc1ccc(NC(=O)c2c(Nc3ccccc3C)sc(C(=O)c3ccccc3)c2N)cc1
-16%,Cc1ccc(NC(=O)CCCn2c(=O)c3cccn3c3ccccc32)cc1Cl
-2%,CN(C(=O)c1cc2c(Cl)nc3ccccc3c2s1)c1cccc(C(F)(F)F)c1
7%,CCCN(c1ccccc1F)S(=O)(=O)c1ccc2c(c1)C(C)(C)C(=O)N2C
-9%,CCn1cc(C(=O)NCCc2ccc(Cl)cc2)c(=O)c2cc(S(=O)(=O)N3CCCCCC3)ccc21
0%,Cc1ccc(-n2c(=O)c3c(C)c(C(=O)N(C)C)sc3n(Cc3ccccc3C)c2=O)cc1C
9%,COc1cc(-c2noc(-c3cc(C(C)C)[nH]n3)n2)cc(OC)c1OC

# Shown with each value named: entries from further up.
Molecule: CN(C(=O)c1cc2c(Cl)nc3ccccc3c2s1)c1cccc(C(F)(F)F)c1
  miR-21 reporter: -2%
Molecule: CCCN(c1ccccc1F)S(=O)(=O)c1ccc2c(c1)C(C)(C)C(=O)N2C
  miR-21 reporter: 7%
Molecule: CCn1cc(C(=O)NCCc2ccc(Cl)cc2)c(=O)c2cc(S(=O)(=O)N3CCCCCC3)ccc21
  miR-21 reporter: -9%
Molecule: Cc1ccc(-n2c(=O)c3c(C)c(C(=O)N(C)C)sc3n(Cc3ccccc3C)c2=O)cc1C
  miR-21 reporter: 0%

# The list continues.
miR-21 reporter,structure
2%,COc1ccc(-c2cc(C(=O)Nc3sc4c(c3C#N)CCCC4)no2)cc1OC
2%,CCOC(=O)c1c(C)[nH]c(C)c1S(=O)(=O)N1CCC(C(=O)Nc2ccc(F)cc2F)CC1
-26%,CC(C)Oc1ccc(CNC(=O)c2cccc(NC(=O)c3nsc4ccccc34)c2)cc1
-1%,CCOc1ccc(C(=O)NCCSc2c(C)[nH]c3ccccc23)cc1OCC
0%,Cc1ccc(C(=O)N2CCN(Cc3cc(=O)n4nc(-c5ccccc5)sc4n3)CC2)cc1
?,Cc1cccc(OCCCCn2c(C3CC(=O)N(c4ccccc4Cl)C3)nc3ccccc32)c1 (stereo unspecified)
?,Cc1ccc(CNC(=O)c2cnn(-c3cccc(C)c3)c2C2CCN(C(=O)OC(C)(C)C)CC2)cc1
4%,CCOc1ccc(-c2cnc(NCc3ccc(OC)cc3OC)n2C)cc1
-9%,COc1ccccc1CCNC(=O)c1cc2c(=O)n3cccc(C)c3nc2n1C
-1%,O=C1Nc2ccc(S(=O)(=O)Nc3ccccc3O)c3cccc1c23
23%,COc1cc(Cl)c(NC(=O)CN(C)S(=O)(=O)c2ccc3[nH]c4c(c3c2)CCCC4)c(OC)c1
0%,Cc1ccc(C)c(N2CCN(C(=O)CCc3nnc4n(CC(C)C)c(=O)c5ccccc5n34)CC2)c1
-6%,Cc1oc2ncn(CC(C)C)c(=O)c2c1C(=O)N(CCN(C)C)Cc1ccccc1
25%,CCCCOc1ccc(C(=O)NCCc2csc(-c3ccc(OC)cc3)n2)cc1
20%,CCOc1ccc(OCC)c(NS(=O)(=O)c2ccc(-c3coc(C)n3)cc2)c1
0%,CCOc1ccc(-c2nc3c(c(SCC(=O)N4CCCCC4)n2)Cc2ccccc2O3)cc1
16%,Cc1cccc(-n2c(Cc3ccccc3)nnc2SCc2nc(-c3cccs3)no2)c1
1%,CCc1ccc(CN(C(=O)Nc2cccc(Cl)c2)c2ccccn2)cc1
3%,CCCSc1nc(-c2ccccc2)[nH]c1S(=O)(=O)c1ccc(C)cc1
0%,COc1ccc(N2CC(NC(=O)C3CC3)CC2=O)cc1OC (stereo unspecified)
0%,Cc1cc(C)cc(N2C(=O)CSC23C(=O)N(CC(N)=O)c2ccccc23)c1 (stereo unspecified)
5%,CCOc1ccc(OCC)c(NS(=O)(=O)c2cc(-c3onc(C)c3C)ccc2OC)c1
-4%,O=C(Nc1ccccc1Br)N1CCC(CN2CCCC2)CC1
28%,Cc1c2cnn(CC(=O)NCc3ccc(F)cc3)c(=O)c2c(C)n1Cc1cccc(Cl)c1
-6%,COc1ccc(-c2nc(CSc3nncn4c3cc3sccc34)c(C)o2)cc1OC
3%,O=C(CSc1nc(=O)n(CCN2CCOCC2)c2c1CCC2)Nc1ccc(Cl)c(Cl)c1
?,CC1CCCN(C(=O)CSc2c3c(nc4cc(Cl)ccc24)CCCC3)C1 (stereo unspecified)
-21%,CCn1nc(C)c2c(-c3ccccc3)cc(=O)n(C(C)C(=O)Nc3ccc(OC)c(OC)c3)c21 (stereo unspecified)
-5%,C#CC(C)(CC)NC(=O)Cn1nnc(-c2ccc(OCc3ccccc3Cl)cc2)n1 (stereo unspecified)
6%,COCCNC(=O)CSc1nc(-c2ccc(C)cc2)[nH]c1-c1ccc(OC)cc1
-1%,Cc1cc2n(n1)CCCN2C(=O)Nc1ccccc1C(F)(F)F
-14%,CCC(Sc1nnc(C)n2c1cc1sccc12)C(=O)Nc1ccccc1F (stereo unspecified)
4%,O=C(NC1CCCC1)c1cnn(-c2ccc(F)cc2F)c1C1CCNCC1
0%,Cc1ccc(S(=O)(=O)c2nnn3c2nc(NC(C)c2ccccc2)c2sccc23)cc1 (stereo unspecified)
0%,COC(=O)c1cc(NC(=O)c2cc3c(-c4ccccc4F)nn(C)c3s2)cc(C(=O)OC)c1
-12%,CCCc1nnc(NC(=O)CSc2nnc3c4ccccc4n(CC)c3n2)s1
-4%,CCc1ccc(NCc2cc3ccc(OC)cc3n(CC(=O)Nc3cccc(Cl)c3C)c2=O)cc1
-6%,COc1cccc(N2C(=O)C(CC(=O)Nc3cccc(F)c3)N(C(C)C)C2=O)c1 (stereo unspecified)
?,Cc1ccc(C)c(N2CCN(C(=O)Cn3cnc4sc(C)c(S(=O)(=O)N5CCN(c6ncccn6)CC5)c4c3=O)CC2)c1
-4%,COc1ccc2c(c1)CC(C(=O)Nc1cc(Cl)ccc1C)CO2 (stereo unspecified)
20%,C=Cc1ccc(Cn2c(C(=O)O)c(CNCCc3ccco3)c3ccc(C)cc32)cc1
10%,Cc1c(-c2ccc(Br)cc2)c(=O)oc2ccc(OC(=O)N3CCOCC3)cc12
-10%,COc1ccc(-c2c(C)nn3c4c(cnc23)C(=O)CC(c2ccccc2)C4)cc1 (stereo unspecified)
9%,Cc1cc(C)cc(-n2c(SCC(=O)NCc3ccco3)nc3c([nH]c4ccccc43)c2=O)c1
15%,Cc1ccc(NC(=O)Nc2nnc(N3CCCCC3)s2)c(C)c1
-1%,Cc1coc2c1c(C)cc1oc(=O)cc(C)c12
-33%,CCCNC(=O)Cn1nc(-c2ccc(F)cc2)c2cnc3ccc(F)cc3c21
-1%,COc1ccccc1NC(=O)C1=C(C)Nc2nc(SCc3ccccc3Cl)nn2C1c1cccnc1 (stereo unspecified)
-3%,O=C(Cn1c(=O)n(Cc2ccccc2)c(=O)c2sc3ccccc3c21)Nc1ccccc1
-2%,CCOc1cc(C(=O)N2CCn3c4c(c5cc(C)ccc53)CCCC42)cc(OCC)c1OCC (stereo unspecified)

# Other structures
miR-21 reporter,structure
-9%,CCN(CC)CCCNC(=O)c1ccc2c(c1)NC(=O)C(CS(=O)(=O)Cc1ccc(F)cc1Cl)N2 (stereo unspecified)
-4%,CC(C)CCNC(=O)CSc1nc2ccccc2nc1Cc1ccccc1
-9%,CCOc1ccc(-n2cc(-c3ccccc3)c3c(NCCc4ccccc4)ncnc32)cc1
-4%,Cc1cc(C)c(NC(=O)CSc2nc3nc(C)cc(C)n3n2)c(C)c1
11%,Cc1cccc(N(CC(=O)NCCc2ccccc2)S(=O)(=O)c2ccccc2)c1C
-9%,CCN(CC)c1ccc(NC(=O)c2cnn(-c3ccccc3)c2-n2cccc2)c(C)c1
-2%,O=C(CSc1nc(-c2cccc(Cl)c2)nc2cc(=O)[nH]n12)Nc1ccccc1
-11%,O=C(CCCCn1c(=O)c2ccccc2n(Cc2ccccc2Cl)c1=O)NCCc1ccccc1
6%,CCCc1nc(SC)ncc1C(=O)N1CCN(c2ccc(Cl)cc2)CC1
8%,COc1ccccc1CNC(=O)c1ccc2c(c1)nc(C)n2-c1cccc(C)c1
-5%,COc1ccc(-c2cc3ccc(O)c(CN4CCC(C)CC4)c3oc2=O)cc1OC
0%,O=C(CN1CCCN(Cc2ccccc2Cl)S1(=O)=O)Nc1ccc2c(c1)OCCO2
-16%,COc1ccc(Nc2nc3c(S(=O)(=O)c4ccccc4)nnn3c3ccc(Cl)cc23)cc1
?,Cn1cc(S(=O)(=O)N2CCCCCC2)cc1C(=O)NCc1ccc(Cl)cc1
-4%,CCCSc1ncc(Cl)c(C(=O)Nc2nc3ccc(C)cc3s2)n1
6%,CCOC(=O)c1cc(C)n(CC2CCC(C(=O)Nc3cccc(Cl)c3)CC2)c1C (stereo unspecified)
-1%,CCOC(=O)c1noc2ncn(CC(=O)Nc3cc(Cl)ccc3OC)c(=O)c12
-7%,COc1ccc(NC(=O)c2oc3ccccc3c2NC(=O)c2cc(=O)c3ccccc3o2)cc1
9%,COc1ccccc1N(CC(=O)Nc1ccccc1C(F)(F)F)S(=O)(=O)c1ccc(C)cc1
-7%,CC(C)(C)NC(=O)c1oc2ccccc2c1NC(=O)c1ccc(F)cc1
2%,CCOc1ccc(NC(=O)Cn2cc(C(=O)c3ccc(C)cc3)c(=O)c3cc4c(cc32)OCCO4)cc1
-2%,COC(=O)CN1C(=O)C(O)(c2c(C)[nH]c3ccccc23)c2ccccc21 (stereo unspecified)
0%,COc1ccc(OCc2ccc(-c3nc(C#N)c(NC(C)c4ccccc4)o3)o2)cc1 (stereo unspecified)
-1%,CC(C)C12CN3CC(C(C)C)(CN(C1)C3c1ccc(Cl)cc1)C2=O (stereo unspecified)
-5%,Cn1cc(C(=O)NCc2ccccc2)c(=O)c2cc(S(=O)(=O)N3CCOCC3)ccc21

# An excerpt from further up, for reference:
miR-21 reporter,structure
-1%,CC(C)C12CN3CC(C(C)C)(CN(C1)C3c1ccc(Cl)cc1)C2=O (stereo unspecified)
-5%,Cn1cc(C(=O)NCc2ccccc2)c(=O)c2cc(S(=O)(=O)N3CCOCC3)ccc21

# (listing goes on)
miR-21 reporter,structure
2%,COc1cc(NC(=O)C2CCN(S(=O)(=O)c3ccc4c(c3)CCCC(=O)N4)CC2)cc(OC)c1
-6%,Cc1ccc(N2C(=O)CSC23C(=O)Nc2ccccc23)cc1F (stereo unspecified)
-2%,CN1C(C(=O)Nc2ccc(F)cc2F)=CC(c2ccc3c(c2)OCO3)=NS1(=O)=O
0%,O=C(Nc1cccc(NC(=O)c2ccccc2Cl)c1)c1cccc(Br)c1
-2%,Cc1ccc(C)c(Cn2c(C(C)NC(=O)c3ccc(F)cc3)nc3ccccc32)c1 (stereo unspecified)
-9%,CCc1ccc(OCc2nc(-c3ccc(OC)cc3)no2)c(Br)c1
?,Cc1cc(-n2c(C)nc3ccccc3c2=O)ccc1NC(=O)c1cccc([N+](=O)[O-])c1C
-72%,CN(C)c1ccc(CNc2nc(-c3ccco3)nn2S(C)(=O)=O)cc1
7%,CCOc1ccc(NC(=O)C(NS(=O)(=O)c2cccc3nsnc23)c2ccccc2)cc1 (stereo unspecified)
-20%,COc1ccc(Nc2c3c(nc4nncn24)CCC3)cc1OC

# Some of the entries so far, as tab-separated lines:
Structure	miR-21 reporter
CCc1ccc(OCc2nc(-c3ccc(OC)cc3)no2)c(Br)c1	-9%
Cc1ccc(C)c(Cn2c(C(C)NC(=O)c3ccc(F)cc3)nc3ccccc32)c1 (stereo unspecified)	-2%
COc1cc(NC(=O)C2CCN(S(=O)(=O)c3ccc4c(c3)CCCC(=O)N4)CC2)cc(OC)c1	2%
COc1ccc(Nc2c3c(nc4nncn24)CCC3)cc1OC	-20%
Cc1cc(-n2c(C)nc3ccccc3c2=O)ccc1NC(=O)c1cccc([N+](=O)[O-])c1C	?
CCOc1ccc(NC(=O)C(NS(=O)(=O)c2cccc3nsnc23)c2ccccc2)cc1 (stereo unspecified)	7%

# This is a subset; count on the stated rates, not on these rows.
